# Bioassay records: PubChem BioAssay, several laboratories
# Rce1 inhib = blocks yeast Ras-converting enzyme. Q03530. yeast membranes, quenched prenylated peptide cleavage fluorescence. calls only. hit rate 0.27% among 290,000;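 active means fall in fluorescence gain of 50% or more versus controls, with final raw signal at or below 3038400; inconclusive means same 50% fall but final raw signal above 3038400; inactive means fall in fluorescence gain under 50%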;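 further: plate controls were neutral control wells for no effect and wells lacking membranes for full effect; tested at 10 µM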
# MT1-MMP act inh = inhibitors of human MT1-MMP activation; HT1080 RFP-PRO-GFP cells, GFP/RFP ratio fluorescence, overnight; percent of plate control window, DMSO zero; P50281; hit rate 0.061% among 360,000; AID 651647; GFP/RFP ratio change, % at 20 µM;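 active means GFP/RFP ratio change of at least 30% with cell ATP level not reduced by more than half and red fluorescence within 50% of control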; further: strong numbers were not always called active
#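 Assay system: RFP-PRO-GFP reporter HT1080 cells; read-out basis: GFP/RFP fluorescence ratio; benchmarks: DMSO wells and RFP-L50D-GFP cells; doses: 20 µM single dose, 1% DMSO; schedule: overnight cell settling, then overnight compound exposure, 37 °C, 5% CO2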
# CSC inhib = blocks cancer stem cells; cancer stem cell-like cells viability, luminescence; inhibition, % at 7.5 µM; hit rate 1.1% among 300,000;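 active means mean at 75% or more and at least half the replicates too; inconclusive means mean and replicates disagree; tested in HMLE shEcad cells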;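 further: 0% = median of negative and 100% = median of positive control wells; the first replicate is given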
# Env fusion inh = blocks HIV Env-driven cell-cell fusion; HeLa-JRFL Env/CEM21 cell fusion, luciferase; hit rate 1.1% among 360,000; inhibition, % at 12.3 µM;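 active means mean replicate inhibition score of at least 50 and every replicate individually at or above 50; inconclusive means only one of the two criteria met; inactive means mean below 50 and not all replicates reaching 50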;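 further: 0% = plate neutral controls and 100% = maraviroc near 300 nM; one replicate is shown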
# Yeast UUG start = alters start codon recognition fidelity in yeast; S. cerevisiae UUG-firefly luciferase reporter, luminescence/redox ratio; activity score, % at 18.7 µM; hit rate 0.13% among 350,000; AID 602363;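 active means replicate mean at a twofold rise or more, about +100% in these data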;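 further: firefly luciferase made from a UUG start codon reports start codon fidelity; reporter light over untreated wells divided by growth signal over untreated wells; some hits fall short of that in this replicate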
# PABP FP inh = PABP-poly(A) binding inhibition. P11940. PABP-poly(A) RNA binding, fluorescence polarization. inhibition, % at 35 µM. hit rate 1% among 290,000. AID 2014;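 active means 50% or more with normal probe brightness, or confirmed in later tests; inconclusive means above 50% with abnormal brightness, or retests that disagree; inactive means below 50% or failed in later tests; about a fifth of its hits are not listed in these tables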;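 further: calls also rest on retests at 20 µM and on dose response follow-up; controls were probe without protein and protein plus probe with vehicle; some compounds called inactive have numbers as strong as hits; many hits fall short of the cut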
# Target sequence (P11940 whole entry, looked up): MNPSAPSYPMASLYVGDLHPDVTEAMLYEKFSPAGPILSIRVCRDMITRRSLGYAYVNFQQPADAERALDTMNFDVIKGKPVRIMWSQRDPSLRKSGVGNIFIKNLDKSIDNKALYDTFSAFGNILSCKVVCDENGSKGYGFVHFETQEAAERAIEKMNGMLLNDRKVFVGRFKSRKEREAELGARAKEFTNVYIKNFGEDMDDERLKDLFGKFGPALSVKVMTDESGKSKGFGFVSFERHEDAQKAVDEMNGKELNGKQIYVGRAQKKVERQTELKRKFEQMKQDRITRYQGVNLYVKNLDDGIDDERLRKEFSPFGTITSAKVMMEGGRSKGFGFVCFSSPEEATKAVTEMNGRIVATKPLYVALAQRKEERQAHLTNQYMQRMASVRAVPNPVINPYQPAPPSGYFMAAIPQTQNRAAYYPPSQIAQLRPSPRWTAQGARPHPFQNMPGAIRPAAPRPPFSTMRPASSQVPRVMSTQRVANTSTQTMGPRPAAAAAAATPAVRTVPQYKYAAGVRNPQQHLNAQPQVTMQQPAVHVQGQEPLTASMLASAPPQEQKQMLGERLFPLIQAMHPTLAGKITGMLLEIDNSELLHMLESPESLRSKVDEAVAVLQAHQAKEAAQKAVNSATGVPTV
# eIF4H FP inh = inhibitors of RNA binding by human eIF4H | Q15056 | eIF4H fluorescence polarization binding assay | inhibition, % at 35 µM | hit rate 0.94% among 290,000 | AID 2012;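 active means 50% or more with normal probe brightness, or confirmed in later tests; inconclusive means above 50% with abnormal brightness, or retests that disagree; inactive means below 50% or failed in later tests; about a fifth of its hits are not listed in these tables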;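 further: calls also rest on retests at 20 µM and on dose response follow-up; 0% = protein and probe with vehicle and 100% = probe without protein; strong numbers were not always called active; many hits fall short of the cut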
# eIF4H FP inh retest = further read-out of eIF4H FP inh, marked with its call; inhibition, %; compound at 20 µM; confirmation average;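 mean of two retest wells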
# PABP FP inh retest = recorded beside PABP FP inh, whose call it bears; inhibition, %; compound at 20 µM; confirmation repeats;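 mean of two retest wells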
# MT1-MMP act inh RFP = recorded beside MT1-MMP act inh, whose call it bears; RFP signal change, %; measured here: RFP expression control read;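 0 = vehicle wells; hits needed this value within 50% of zero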
# Numbers without * were called inactive; i = inactive; ? = inconclusive; · = no result given.
SMILES,Rce1 inhib,MT1-MMP act inh,MT1-MMP act inh RFP,CSC inhib,Env fusion inh,Yeast UUG start,PABP FP inh,eIF4H FP inh,others
CCn1c(-c2ccc(OC)c(OC)c2)n[nH]c1=S,i,8,6,7,·,·,-16,-9,
COC(=O)c1cc(=O)n(CCc2ccc(OC)cc2)c(=Nc2ccc(F)c(Cl)c2)s1,i,-10,-19,100*,3,-19,4,5,
COCCn1c(-c2cccs2)csc1=Nc1cccnc1,·,-4,-1,-11,28,·,-8,5,
NC(=O)c1cc(S(=O)(=O)N2CCCC2)ccc1OCCOc1ccccc1,·,-2,2,6,14,-8,·,·,
CCCOc1ccc(C(=O)N2CC3(CC(c4cccc(NC(=O)[C@@H]5CCC(=O)N5)c4)=NO3)C[C@H]2C(=O)NC2(C(N)=O)CC2)cc1 (some centres undefined),i,1,4,-10,26,5,16,-8,
O=C(COc1ccc(Cl)cc1Cl)N/N=C/C1CC=CCC1 (centres undefined),i,1,3,10,8,-17,-8,2,
O=S(=O)(NCC1CCN(c2ccc(S(=O)(=O)N3CCOCC3)cc2)CC1)c1ccccc1,i,-1,-6,·,-9,-1,13,-1,
CC(Oc1ccc(F)cc1)C(=O)Nc1ccccc1C(=O)NC1CC1 (centres undefined),i,3,-5,-11,-9,·,·,·,
O=C(NCc1cc(Cl)cc(Cl)c1)c1ccc2nc([C@@H]3O[C@H](CO)[C@@H](O)[C@H]3O)[nH]c2c1,·,1,7,·,6,-13,·,·,
CC(OC(=O)CN1C(=O)NC2(CCCC2)C1=O)C(=O)Nc1cccc(Cl)c1Cl (centres undefined),i,0,2,·,-15,·,·,·,
COc1ccc(CNC(=O)N2CCN(c3cccc(C)c3C)CC2)cc1OC,·,1,-7,8,-1,-7,-4,-8,
Cc1nn(-c2ccccc2)c(C)c1NC(=O)COC(=O)c1ccccc1,·,0,-5,·,-2,-23,·,·,
CN(C(=O)COC(=O)C1COc2ccccc2O1)c1c(N)n(Cc2ccccc2)c(=O)[nH]c1=O (centres undefined),i,2,6,-19,5,·,·,·,
COc1ccc(NC(=O)NC2(C(=O)N3CCCC(C)C3)CCCCC2)cc1 (centres undefined),i,1,1,·,18,-12,8,-4,
O=C(CNc1ccc2ccccc2c1)N/N=C/c1ccccn1,i,-2,2,-3,11,18,5,18,
O=C1/C(=C\c2cccc(O)c2)SC(=S)N1Cc1ccccc1,i,4,0,20,2,-23,-4,-1,
Cc1cccc(NC(=O)c2ccc(S(=O)(=O)N3CCCCC3)cc2)c1,i,0,-4,-6,40,-19,0,-1,
Brc1ccc(C2=Nc3ccccc3C(c3ccncc3)=NN2)cc1,i,-8,-7,1,-4,·,-1,4,
O=C(CSc1nnc(CNC(=O)c2ccc(F)cc2)o1)NCC1CCCO1 (centres undefined),i,1,1,-11,2,-17,-6,2,
C=CCC(O)c1c(-c2ccccc2)nn(C)c1Cl (centres undefined),i,3,7,6,13,·,-10,6,
CCOC(=O)C(C)Sc1nc(=O)n2cccc(C)c2n1 (centres undefined),i,1,-1,0,2,·,0,-4,
C/C(=N\NC(=O)c1ccc(N(C)C)cc1)c1cccnc1,i,0,6,-1,·,-15,-4,-1,
CCOC(=O)c1oc2c(CN3CCN(CCO)CC3)c(O)c(CC)cc2c(=O)c1-c1nc2ccccc2s1,i,-2,0,-6,4,·,15,4,
O=C(CS(=O)(=O)c1cccc(Cl)c1)Nc1ccccc1Cl,i,5,3,-5,-51,-4,0,-1,
COc1ccc(-n2cnnc2SCC(=O)N(C)C2CCS(=O)(=O)C2)cc1 (centres undefined),i,0,0,4,-9,-18,12,-4,
# Other entries follow:
SMILES,Rce1 inhib,MT1-MMP act inh,MT1-MMP act inh RFP,CSC inhib,Env fusion inh,Yeast UUG start,PABP FP inh,eIF4H FP inh,others
O=[N+]([O-])c1cc(C=Nc2cccc3c(O)cccc23)ccc1Cl,i,·,·,·,·,·,?,?,
CN(C(=O)CSc1nc(C2CC2)n(-c2ccccc2)n1)C1CCS(=O)(=O)C1 (centres undefined),·,3,-2,·,-2,-16,·,·,
O=[N+]([O-])c1cc(Cl)ccc1N1CCN(c2ccccc2O)CC1,i,6,1,26,-8,·,-9,-1,
CC(=O)c1ccc(NC(=O)C2CCCN(S(=O)(=O)c3c(C)[nH]c(=O)[nH]c3=O)C2)cc1 (centres undefined),i,-7,-8,-7,-6,·,1,2,
COc1cc2cc(C#N)c(SCC(=O)N3CCOCC3)nc2cc1OC,·,5,1,-16,13,-10,2,11,
CCc1nc2ccc(C(=O)N(CC)CCN(C)C)cn2c1N(C)CCCc1ccccc1,·,1,-1,·,9,-2,·,·,
CCOC(=O)C1CCCN(S(=O)(=O)c2ccc(Br)s2)C1 (centres undefined),·,-9,-9,3,·,1,-1,-5,
COCc1cc(/C=N\NC(=O)Cc2ccc(OC)cc2)ccc1OC,i,2,2,-2,-12,-6,2,-5,
O=C(Nc1cccc(C(F)(F)F)c1)Nc1nnc([C@H]2C[C@H](O)[C@@H](CO)O2)s1,·,-12,-8,·,25,-11,·,·,
CCOC(=O)c1ccc(Nc2ncnc3ccccc23)cc1,i,0,-3,-5,21,0,-8,-4,
COC(=O)c1ccccc1NC(=O)CSc1n[nH]c(-c2cccnc2)n1,i,3,-1,-16,-2,·,-3,-5,
Cc1noc(C)c1COC(=O)c1ccc2c(c1)OCO2,·,-5,-2,-15,-168,-11,-3,-11,
Cc1ccc(C)c(-n2cc(-c3ccc(Cl)cc3)nc2SCC(=O)NC2CCS(=O)(=O)C2)c1 (centres undefined),i,0,-4,-14,13,14,-6,-4,
CCCCN1C2=NCCCN2c2cc(C)c(C)cc21,i,0,-2,-3,·,-6,9,-8,
CCOC(=O)CC1C(=O)NCCN1C(=O)NC1CCCCC1 (centres undefined),i,3,1,-2,-32,-14,4,-2,
CCOC(=O)c1c(S(=O)(=O)NCc2cccs2)c(C)n(C)c1C,i,4,5,3,-7,-4,-1,-16,
O=C(CCN1C(=O)c2ccccc2C1=O)Nc1ccc(F)cc1F,i,-1,1,1,-8,-14,3,-1,
COC(=O)c1scc(C)c1-n1ccc(C(=O)C(=O)N(C)C)c1,i,0,1,-10,0,-14,16,4,
COc1ccc(CCNC(=O)c2ccc(-c3cccc([N+](=O)[O-])c3)o2)cc1OC,i,2,-1,-1,26,·,-3,-1,
CCOc1ccc(N(C)S(=O)(=O)c2ccc3[nH]cc(C(=O)NCC(OC)OC)c(=O)c3c2)cc1,i,5,-6,-1,6,1,7,-10,
COc1cc(NC(=O)c2cccc(NC3=NC4CS(=O)(=O)CC4S3)c2)cc(OC)c1OC (centres undefined),i,-2,10,-8,18,-15,-9,0,
Cc1nc2ccccn2c1C(=O)NNC(=O)Nc1cccc(C(F)(F)F)c1,i,4,-1,24,-4,-17,2,7,
CC(C)CCNC(=O)COc1ccc(N(C)S(=O)(=O)c2ccc(F)cc2)cc1,i,5,-5,0,6,·,-11,7,
COc1cc(NCC2COc3c(ccc(OC)c3OC)C2=O)c([N+](=O)[O-])cc1OC (centres undefined),·,5,-15,·,14,3,·,·,
CCCC(c1nnnn1Cc1ccc(F)cc1)N1CCN(C2CCCCC2)CC1 (centres undefined),i,5,3,21,·,-8,6,-2,

# Copied from above, 4 compounds:
SMILES,Rce1 inhib,MT1-MMP act inh,MT1-MMP act inh RFP,CSC inhib,Env fusion inh,Yeast UUG start,PABP FP inh,eIF4H FP inh,others
Cc1ccc(C)c(-n2cc(-c3ccc(Cl)cc3)nc2SCC(=O)NC2CCS(=O)(=O)C2)c1 (centres undefined),i,0,-4,-14,13,14,-6,-4,
CCCCN1C2=NCCCN2c2cc(C)c(C)cc21,i,0,-2,-3,·,-6,9,-8,
CCOC(=O)CC1C(=O)NCCN1C(=O)NC1CCCCC1 (centres undefined),i,3,1,-2,-32,-14,4,-2,
CCOC(=O)c1c(S(=O)(=O)NCc2cccs2)c(C)n(C)c1C,i,4,5,3,-7,-4,-1,-16,

# More compounds
SMILES,Rce1 inhib,MT1-MMP act inh,MT1-MMP act inh RFP,CSC inhib,Env fusion inh,Yeast UUG start,PABP FP inh,eIF4H FP inh,others
CS(=O)(=O)Nc1nnc(SCC(=O)N(c2ccccc2)c2ccccc2)s1,i,2,6,-4,-1,-11,12,-17,
COc1ccc(/C(C)=N/OC/C(O)=C(\C#N)c2nc3ccccc3[nH]2)cc1,i,-5,4,12,-2,-11,7,0,
CC1(c2nnc(-c3ccncc3)o2)CC(c2cccc(Cl)c2)=NO1 (centres undefined),i,6,2,-18,16,-11,·,·,
NC(=O)[C@H]1CC2(CC(c3cccc(NC(=O)[C@H]4CCC(=O)N4)c3)=NO2)CN1C(=O)c1cc([N+](=O)[O-])cc([N+](=O)[O-])c1 (some centres undefined),i,2,4,-15,-3,6,5,-7,
Cc1cccc(OCCSc2cc(C)nc(N)n2)c1,i,5,-1,-8,·,1,1,3,
CCOC(=O)Nc1ccc2nc(Sc3ccc(Cl)cc3)sc2c1,i,1,-11,85*,-13,-20,7,-5,
Cc1ccc(NC(=O)COC(=O)c2ccco2)cc1S(=O)(=O)N1CCCCC1,·,-1,6,·,-2,-9,·,·,
O=C(CNc1ccccc1Cl)c1ccc(Br)cc1,i,-2,1,·,-1,1,-7,-2,
COCCn1c(SCC(=O)NN2C(=O)NC(C)(c3ccccc3)C2=O)nnc1-c1ccncc1 (centres undefined),·,-1,0,-12,2,5,·,·,
O=C(c1ccc(NS(=O)(=O)c2cccc([N+](=O)[O-])c2)cc1)N1CCN(C(=O)c2ccco2)CC1,·,2,-1,-3,·,0,·,·,
C/C=C(\C)C(=O)NCCN1C2=NC[C@H](C(C)C)N2C[C@@H]1Cc1ccc(OC)cc1,i,-1,4,-7,-11,-16,52*,48,
COC(=O)C1=C(C)N(CCCC(=O)O)C(=O)NC1c1cc2c(cc1[N+](=O)[O-])OCO2 (centres undefined),i,-2,3,-3,25,-18,-2,96,eIF4H FP inh retest=1;PABP FP inh retest=7
CC(C)CCN1CCN(C2CCN(c3ccccc3)CC2)CC1CCO (centres undefined),i,2,5,41,13,·,-6,-4,
CC(C)c1nnc(NC(=O)CCCCCN2C(=O)C3C4C=CC(C4)C3C2=O)s1 (centres undefined),i,-1,-4,-8,0,-13,-1,-4,
CC(C)(C)NC(=O)NC(=O)CN1CCN(S(=O)(=O)c2ccc3c(c2)CCCC3)CC1,i,-3,-2,1,-44,10,·,·,
CCC(=O)Nc1ccc(OC)cc1OC,i,0,4,1,-21,-6,-1,-8,
Cc1cc2occ(CC(=O)NNC(=O)c3ccccc3)c2cc1C,i,-2,0,3,7,-8,-10,-1,
CC1CCCN(S(=O)(=O)c2ccc(NC(=O)CN3CCN(C)CC3)cc2)C1 (centres undefined),i,1,-1,42,9,-21,-4,-6,
CN(C(=O)COC(=O)CNC(=O)C12CC3CC(CC(C3)C1)C2)C1CCS(=O)(=O)C1 (centres undefined),i,7,8,-11,7,2,0,1,
C/C(CC(=O)NC1CCCCC1)=N\NC(=O)COc1ccc(C)cc1Br,i,-1,2,-19,20,·,-5,2,
Cc1cccc(C(=O)NC2CCN(S(=O)(=O)c3ccc(F)cc3)CC2)c1,i,-4,0,4,-4,-2,2,-4,
COc1ccccc1N1CCN(C(=O)c2ccco2)CC1,i,-4,0,-13,-34,0,-5,6,
CC(=O)c1cccc(NC(=O)N2CCCC2C(=O)NCc2ccc(C)cc2)c1 (centres undefined),i,2,2,-11,·,-23,17,14,

# Not all compounds are listed; count on the stated rates, not on these rows.
